LASV entry inh: inhibitors of Lassa virus binding or cell entry | Lassa virus pseudotype entry inhibition, cell reporter; control for the full effect not named in the record | Potency, µM (doses to about 37.9 µM), for the others: at the top dose activity change, negative = inhibition, actives largely listed as inhibitors | actives 1.2% (n = 300,000) | AID 540256; active means well fitted inhibition curve with a large enough effect; inconclusive means small, poorly fitted or top-dose-only effect, or effect the other way; inactive means flat fitted curve, though single readings scatter; tested in HEK293 cells; note: % is set by controls: 0 for no effect and ±100 for the full control effect; nearly all actives have a fitted effect of over 50% in size; luciferase read-out
Cruzain noTriton: inhibitors of Trypanosoma cruzi cruzain without detergent. purified cruzain, Z-FR-AMC fluorescence, no detergent. Potency, µM, for the others: max response, negative = inhibition, actives largely listed as inhibitors. actives 2.3% (n = 200,000). AID 1476;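 note: plate controls were enzyme without inhibitor for no effect and buffer without enzyme for full effect; nearly all actives have a fitted effect of over 40% in size; top concentration of the series not given in the record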
Target sequence (P25779 123-467 limits assumed): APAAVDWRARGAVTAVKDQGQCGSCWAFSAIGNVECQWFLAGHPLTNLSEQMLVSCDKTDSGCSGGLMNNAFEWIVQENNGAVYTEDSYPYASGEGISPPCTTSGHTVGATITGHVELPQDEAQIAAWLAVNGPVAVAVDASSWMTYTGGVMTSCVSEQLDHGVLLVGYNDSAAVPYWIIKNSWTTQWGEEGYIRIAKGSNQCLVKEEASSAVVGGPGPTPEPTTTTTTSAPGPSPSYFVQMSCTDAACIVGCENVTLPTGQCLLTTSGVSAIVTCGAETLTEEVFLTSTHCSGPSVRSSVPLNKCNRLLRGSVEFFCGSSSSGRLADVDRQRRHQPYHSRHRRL
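Detergent-free condition (0.00005% Triton X-100) in acetate buffer pH 5.5 with DTT. 1.5 nM enzyme and compound were pre-mixed 15 min, then 2 uM Z-FR-AMC substrate added; reaction progress from fluorescence change between first and third reads (60 s).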
RE007 growth inh: less growth of the S. pombe RE007 Vpr strain; Potency, µM (series often up to 92.2 µM), for inactives: top-dose activity change, negative = less growth; actives 0.21% (n = 360,000); AID 651644; S. pombe RE007 Vpr strain, BacTiter-Glo ATP luminescence, 24 h; control for the full effect not named in the record; active = well fitted falling curve with a large enough effect; inconclusive = small, poorly fitted or top-dose-only effect; inactive = no such curve, though single readings can be large or run the other way;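 note: % is set by controls: 0 for no effect and ±100 for the full control effect; nearly all actives have a fitted effect of over 50% in size; the assay follows cell death caused by Vpr and the record does not say whether a fall means rescue or toxicity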
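Fission yeast RE007 carrying one integrated HIV-1 vpr copy, seeded at OD 0.01 in PMG+AL medium with 23 nL pinned compound. Grown 24 h at 30 degrees; viability read by BacTiter-Glo luminescence after 5 min.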
SARS PLP yeast: blocks SARS-CoV papain-like protease in a yeast assay. S. cerevisiae expressing SARS-CoV PLpro, growth rescue; control for the full effect not named in the record. Potency, µM (titrated, usually from 32.9 µM), for the others: at the top dose activity, positive = growth rescue. actives 0.19% (n = 330,000); active means well fitted rising curve with a large enough effect; inconclusive means small, poorly fitted or top-dose-only effect; inactive means no such curve, though single readings can be large or run the other way; note: 0% is about no effect; nearly all actives have a fitted effect of over 55% in size; growth read by luminescence after 48 h
Cruzain Triton: inhibitors of Trypanosoma cruzi cruzain with detergent | P25779 | purified cruzain, Z-FR-AMC fluorescence, 0.01% Triton | Potency, µM, inactives show max response, negative = inhibition, most hits filed as inhibitors | actives 0.43% (n = 200,000);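 note: plate controls were neutral wells for no effect and buffer without enzyme for full effect; nearly all actives have a fitted effect of over 40% in size; top concentration of the series not given in the record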
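Purified cruzain (1.5 nM final) was preincubated with compounds for 15 min at room temperature in 100 mM sodium acetate pH 5.5, 5 mM DTT, 0.01% Triton X-100. Reaction started with 2 uM Z-FR-AMC; AMC fluorescence change over 60 s gave activity.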
MARV entry inh: inhibitors of Marburg virus binding or cell entry. Marburg virus pseudotyped entry inhibition, cell reporter; control for the full effect not named in the record; about a third of the inactives were read at about 46 µM. Potency, µM (doses to about 37.8 µM), inactives show at the highest dose activity change, negative = inhibition, most hits filed as inhibitors. actives 1.8% (n = 300,000); active = well fitted inhibition curve with a large enough effect; inconclusive = small, poorly fitted or top-dose-only effect, or effect the other way; inactive = flat fitted curve, though single readings scatter; tested in HEK293 cells; about a fifth of its hits are not listed in these tables; note: % is set by controls: 0 for no effect and ±100 for the full control effect; luciferase read-out
2A StopGo: lowers the luciferase signal of an FMDV 2A StopGo reporter. Potency, µM (highest dose often 57.9 µM), without a hit: at the top dose signal change, negative = less light. actives 1.2% (n = 410,000). AID 1159524. human cells with a luciferase reporter of 2A StopGo recoding; control for the full effect not named in the record; active = well fitted falling curve with a large enough effect; inconclusive = small, poorly fitted or top-dose-only effect; inactive = no such curve, though single readings can be large or run the other way; tested in HEK293T cells; note: % is set by controls: 0 for no effect and ±100 for the full control effect; nearly all actives have a fitted effect of over 45% in size; luciferase light after 4 h
NS1 inh: blocks influenza NS1 protein function; S. cerevisiae slowed by influenza A NS1, growth recovery by OD600; Potency, µM (series often up to 46.1 µM), inactives show at the top dose activity, positive = more growth; actives 0.4% (n = 270,000); active means well fitted rising curve with a large enough effect; inconclusive means small, poorly fitted or top-dose-only effect; inactive means no such curve, though single readings can be large or run the other way; note: nearly all actives have a fitted effect of over 50% in size
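Recovery from NS1-induced slow growth read by OD600 in budding yeast switched to galactose assay medium (pH 6.0, -URA) at 1:100 dilution. Compound 23 nl per well; the matching strain lacking NS1 serves as control.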
An asterisk follows results filed as active; ? = inconclusive; . = not tested or not shown; & = joins results of further samples; [ ] = dose if it differs, or a comment. Unless noted, calls come from the whole dose curve; as a rule, active = well fitted curve in the direction sought with a large enough effect; inconclusive = small, poorly fitted or top-dose-only effect, or another doubt; inactive = no such curve, though single readings can be large; an effect the other way counts as inactive or inconclusive. Potency is the fitted concentration of half-maximal effect.

Value order: MARV entry inh	RE007 growth inh	LASV entry inh	2A StopGo	NS1 inh	Cruzain noTriton	Cruzain Triton	SARS PLP yeast
- Oc1c(C(c2ccccc2F)N2CCCCC2)sc2nc(-c3ccco3)nn12 (stereo not given)
  .	.	9.5%[46.1 µM]	14.4%	.	-9.8%	-3.2%	.
- CCn1c(SCc2cccc(F)c2)nnc1-c1ccncc1
  .	-3.9%	.	0.5%	2.0%	.	.	-0.5%
- Cc1ccc(Nc2cc(C)nc3nc(Cc4ccc(Cl)cc4)nn23)cc1
  -4.3%[46.1 µM]	.	-16.0%[46.1 µM]	0.0%	.	28.4%	-6.4%	.
- O=C(CCC(=O)N1CCCCC1)Nc1nnc(C2CCCCC2)s1
  -2.8%[46.1 µM]	-12.7%	-0.2%[46.1 µM]	0.3%	-5.7%	.	.	-4.4%
- CCOC(=O)C1(Cc2ccccc2C)CCCN(C(=O)c2cc(CC)nn2C)C1 (stereo not given)
  .	4.0%	.	-18.8%	0.9%	.	.	1.4%
- O=c1oc2ccccc2cc1-c1nc(-c2cccc(Cl)c2)cs1
  .	.	7.6%[46.1 µM]	-30.6%	.	-1.3%	-0.3%	.
- COC(=O)C1C(=O)/C(=C/N(C)C)C(=O)CC1(C)C (stereo not given)
  -9.7%[14.2 µM]	3.4%	0.2%	-24.6%	.	.	.	5.3%
- O=C(NNS(=O)(=O)c1ccc([N+](=O)[O-])cc1)C(=O)Nc1cccc(C(=O)O)c1
  .	-0.3%	.	-7.5%	-9.0%	.	.	-0.8%
- COC(=O)COc1ccc(S(=O)(=O)NCc2ccc3c(c2)OCO3)cc1C
  .	0.9%	.	18.6%	-14.5%	.	.	-1.6%
- O=c1cc(-c2ccccc2)n2c(SCc3ccc(Br)cc3)nnc2[nH]1
  .	.	3.1%[46.1 µM]	7.8%	.	5.1%	4.9%	.
- COc1ccc(NC(=O)COC(=O)Cn2c(C)nc3ccccc32)cc1OC
  7.6%	-9.4%	1.8%	-23.8%	2.4%	-6.0%	0.1%	2.7%
- O=C(NC(=S)N1CCN(c2ccc(C(F)(F)F)cc2[N+](=O)[O-])CC1)c1cccs1
  -29.8%	-19.4%	-28.1%	-11.3%	19.1%	-3.0%	-14.2%	-38.5%
- CCN(CC)S(=O)(=O)c1ccc(Cl)c(NC(C)=O)c1
  27.7%[46.1 µM]	8.5%	17.6%[46.1 µM]	-9.3%	-1.1%	.	.	0.9%
- COc1ccc2oc(-c3ccc(C)c(NC(=O)c4ccc(N5CCOCC5)c([N+](=O)[O-])c4)c3)nc2c1
  -28.7%	2.4%	-5.3%	58.4%[activator]	10.4%	4.1%	-1.6%	2.9%
- CCc1ccc2nc(NC(=O)c3cc(C)on3)sc2c1
  -21.7%	-12.0%	?	5.3%	-58.0%	-10.2%	-4.3%	-13.7%
- CCOC(=O)N1CCN(C(=O)c2ccc(CS(=O)c3ccccc3)o2)CC1 (stereo not given)
  .	2.2%	.	1.9%	-3.0%	.	.	-9.8%
- O=C(Nc1ccc(OCC(=O)N2CCN(S(=O)(=O)c3ccccc3)CC2)cc1)c1ccco1
  -5.0%&-5.0%	-3.0%	3.2%	-19.3%	-9.9%	10.2%	-2.1%	3.0%
- COCCCn1c(C)nnc1SCC(=O)Nc1ccc(C(C)=O)cc1
  .	1.1%	.	5.3%	26.8%	.	.	0.4%
- CCCOc1ccc(Cn2c(=O)oc3ccc(C)cc32)cc1
  .	-4.5%	.	-4.5%	-1.2%	.	.	2.7%
- Cc1ccccc1NC(=S)NC(NC(=O)C(C)(C)C)C(Cl)(Cl)Cl (stereo not given)
  ?	5.0%	-8.8%	8.4%	-8.5%	-1.3%	0.7%	2.1%
- COc1ccc(C(=O)NCCS(=O)(=O)N2CCCC2)cc1
  30.0%	19.5%	10.0%	-15.0%	.	.	.	-2.6%
- Cc1ccc(-c2nnc(SCC(=O)NC3CCCc4ccccc43)n2N)cc1 (stereo not given)
  -11.2%	2.7%	1.6%	?	5.5%	8.4%	-4.2%	9.6%
- O=C(Nc1ccc(N2CCOCC2)cc1)c1ccc2ncsc2c1
  ?	-3.3%	?	-24.4%	.	.	.	-4.4%
- CCOC(=O)C1(CCOC)CCN(Cc2ccncc2)CC1
  1.3%[46.1 µM]	?	?	-11.7%	1.0%	.	.	0.6%
- O=C(N/C(=C\c1ccc(Cl)cc1)C(=O)N1CCCCC1)c1ccco1
  2.0%[46.1 µM]	4.8%	-13.1%[46.1 µM]	0.0%	-33.5%	.	.	-4.3%
- S=C(NC1CCCCC1)N1CCN(c2ncccn2)CC1
  .	-4.7%	.	-0.7%	3.5%	.	.	0.4%
- COC(CNC(=O)[C@H](CSCc1ccccc1)N1Cc2ccccc2C1=O)OC
  -8.6%[46.1 µM]	-3.7%	0.8%	-6.7%	.	.	.	1.1%
- NS(=O)(=O)c1ccc(CNC(=O)/C=C/c2ccccc2)cc1
  23.0%	-0.3%	21.0%	-11.8%	-6.1%	-1.2%	2.4%	-1.2%
- C=CCn1cnc2c(c1=O)c1nc3ccccc3nc1n2/N=C/c1ccccn1
  ?	-21.0%	-9.6%[14.3 µM]	-19.6%	-31.4%	?	-10.4%	?
- COc1ccc(C(=O)Nc2cccc(OCc3cc(=O)n4c5c(sc4n3)CCCC5)c2)cc1OC
  10.8%[46.1 µM]	.	3.1%[46.1 µM]	-3.0%	.	5.4%	-0.3%	.
- CCOc1ccc(/C=N/n2c(SC)nnc2-c2ccccc2)cc1OCC
  ?	10.9%	?	3.1%	1.8%	?	-5.8%	1.2%
- CCOc1cc(CNc2ccc(O)cc2)ccc1OCc1ccc(Cl)cc1
  ?	.	-12.0%[46.1 µM]	-18.0%	.	-18.8%	-19.5%	.
- CCOC(=O)NN1C(=O)c2ccccc2NC1c1cccs1 (stereo not given)
  ?	-4.0%	4.7%	-11.1%	2.1%	.	.	0.2%
- C=CCn1c(O)c(/C=N/N2CCOCC2)c(=O)[nH]c1=S
  7.9%	15.0%	-12.6%	-9.6%	-6.3%	-1.8%	-11.0%	16.4%
- CCOc1ccc(CN2CCCN(C)CC2)cc1
  -2.4%	-2.7%	7.3%	.	3.9%	3.5%	2.8%	2.6%
- O=C(CCl)Nc1cccc(S(=O)(=O)N2CCCCCC2)c1
  ?	.	7.94µM*	25.1µM*	-17.9%	-11.1%	-5.1%	29.0%
- Cc1csc(SC(C)C(=O)NCc2ccc3c(c2)OCO3)n1 (stereo not given)
  -15.5%	-1.9%	-3.5%	8.7%	.	.	.	-0.5%
- Cc1cccc[n+]1CC(=O)c1ccc(NC(=O)c2ccccc2)cc1
  .	-8.1%	.	21.1%	-16.7%	.	.	-2.0%
- COC(=O)CCc1n[nH]c(=O)[nH]c1=O
  -3.2%	0.1%	.	-13.9%	-8.4%	-5.2%	-2.2%	5.4%
- O=C(/C=C/c1ccccc1O)c1ccco1
  -24.6%	?	?	?	-65.4%	.	.	-7.1%
- CC1=C(C)CC(C(=O)NCCc2ccc(F)cc2)C(C(=O)O)C1 (stereo not given)
  -2.8%[46.1 µM]	-5.8%	3.1%[46.1 µM]	-15.6%	13.2%	.	.	-1.9%
- Cc1cccc(OCc2ccc(-c3nc(C#N)c(NCc4cccnc4)o3)o2)c1
  ?	.	4.3%[46.1 µM]	-10.4%	.	?	-8.7%	.
- CCCCOc1ccc(C(=O)NCc2cn3cccc(C)c3n2)cc1
  1.5%[46.1 µM]	.	11.5%[46.1 µM]	-15.2%	.	-6.5%	-3.2%	.
- C=CCn1c(SCC(=O)CC(=O)OCC)nc2cc(C(=O)N3CCC(C(N)=O)CC3)ccc2c1=O
  3.3%[46.1 µM]	-9.1%	0.2%	28.1%	.	.	.	-2.9%
- Cn1cc(S(=O)(=O)N2CCCCCC2)cc1C(=O)N1CCN(c2ccccc2F)CC1
  .	.	?	0.0%	.	-5.8%	-2.9%	.
- O=C(O)c1ccc(OCCN2CCCC2=O)cc1
  -3.4%	-15.5%	?	-6.8%	22.9%	.	.	4.6%
- O=C(NCCc1ccc(F)cc1)C(=O)NCC(c1cccs1)S(=O)(=O)c1ccc(F)cc1 (stereo not given)
  .	.	?	?	.	1.7%	-4.0%	.
- CCOc1cc(CNc2ccc(C(=O)O)cc2)ccc1OCc1ccccc1
  -8.8%[46.1 µM]	.	-10.1%[46.1 µM]	-7.6%	.	-7.5%	-2.4%	.
- COc1cccc(Cn2c(Oc3ccccc3)nc3c2c(=O)n(C)c(=O)n3C)c1
  -1.0%	8.6%	?	?	-17.4%	?	-9.6%	-12.6%
- c1cc(CNCCN2CCNCC2)ccn1
  4.0%[46.1 µM]	3.1%	0.0%[46.1 µM]	-14.3%	0.3%	-5.9%	3.3%	.
- CSc1ccc(C(=O)C2CCCN(C(=O)c3nn(C)c(=O)c4ccccc34)C2)cc1 (stereo not given)
  ?	8.5%	?	?	2.1%	.	.	-1.8%
- CC(C(=O)Nc1ccccc1C(=O)N1CCCC1)n1nnc2ccccc21 (stereo not given)
  -1.6%	-7.6%	?	-4.8%	-0.8%	-3.0%	-7.1%	-1.8%

In the list so far, these have an NH in an aromatic ring.
Value order: MARV entry inh	RE007 growth inh	LASV entry inh	2A StopGo	NS1 inh	Cruzain noTriton	Cruzain Triton	SARS PLP yeast
- O=c1cc(-c2ccccc2)n2c(SCc3ccc(Br)cc3)nnc2[nH]1
  .	.	3.1%[46.1 µM]	7.8%	.	5.1%	4.9%	.
- C=CCn1c(O)c(/C=N/N2CCOCC2)c(=O)[nH]c1=S
  7.9%	15.0%	-12.6%	-9.6%	-6.3%	-1.8%	-11.0%	16.4%
- COC(=O)CCc1n[nH]c(=O)[nH]c1=O
  -3.2%	0.1%	.	-13.9%	-8.4%	-5.2%	-2.2%	5.4%
